Source: PubChem
Sa growth inh – S. aureus growth inhibition. AID 720641. relative growth, % (test concentration not listed). S. aureus RN4220 growth, OD600, 20 h, 42 °C; stronger effect = lower value. 0.53% of 170,000 active;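 active = growth at 42 °C up to 50% and 20 or more points under that at 30 °C, or under 10% at both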;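 note: 300 nL library stock went into each well; scaled to the means of positive and negative controls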
GIV-Gai inh – inhibitors of GIV GBA-motif binding to rat Galpha-i3; P08753; AID 1224905; percent of control (FP), % (test concentration not listed); Galpha-i3/FITC-GIV peptide fluorescence polarization, 90 min; stronger effect = lower value; scaled: aluminum fluoride 0%, vehicle 100%; 0.42% of 210,000 active;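 active = replicate mean at 85% of control or lower, very high polarization wells dropped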;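 note: wells of about 15 µL received 100 nL stock; the first replicate is given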
Target sequence (P08753 whole entry, looked up): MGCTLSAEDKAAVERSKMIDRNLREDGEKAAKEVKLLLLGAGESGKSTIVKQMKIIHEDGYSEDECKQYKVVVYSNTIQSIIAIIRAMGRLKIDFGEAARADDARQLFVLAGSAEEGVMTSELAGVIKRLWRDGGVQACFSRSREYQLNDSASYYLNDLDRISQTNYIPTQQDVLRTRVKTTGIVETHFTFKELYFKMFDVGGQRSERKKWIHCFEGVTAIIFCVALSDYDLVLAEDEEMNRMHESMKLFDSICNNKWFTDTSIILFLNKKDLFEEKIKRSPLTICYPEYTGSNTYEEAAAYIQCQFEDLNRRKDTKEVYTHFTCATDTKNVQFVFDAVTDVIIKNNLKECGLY
HCMV UL50-53 inh – disrupts HCMV UL50-UL53 complex binding; inhibition, % (no concentration beside the values); AID 1918969; HTRF UL50-UL53 interaction, normalized percent inhibition; 0.15% of 190,000 active;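 active = both replicates at 50% or more, plus weaker picks with an unusually low signal ratio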;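 note: stock transfer was 100 nL into about 20 µL; 0% = negative control wells and 100% = wells with untagged competitor protein; inactives centre near -12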
Sa growth inh second temp – also measured in Sa growth inh; calls as there; relative growth, %; measured here: growth at 30 °C;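 optical density after 20 h as mean of two plates; 100% = untreated growth and lower means inhibition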
An asterisk follows results filed as active; . = not tested or not shown; & = joins results of further samples.

SMILES | Sa growth inh | Sa growth inh second temp | GIV-Gai inh | HCMV UL50-53 inh
N=c1oc2ccccc2oc1=N | 85 | 58 | 101 | .
CCCc1nc2cc3sc(CCC)nc3cc2s1 | 106 | 91 | 108 | -14
CCCS(=O)(=O)c1ccc(NC(=O)Nc2ccc(Cl)cc2Cl)cc1 | 118 | 86 | 99 | -38
CCCNS(=O)(=O)c1ccc(OC)c(-c2noc(C(C)(C)C)n2)c1 | . | . | 110 | 6
CC(=O)Nc1ccc2nc(SCCOc3ccc(C)cc3)sc2c1 | 111 | 93 | 98 | 1
COc1ccc(C2C(C#N)=C(N)OC3=C2C(=O)CC(c2ccccc2Cl)C3)cc1 (configuration not stated) | . | . | 99 | -7
Cc1ccc2nc(Cl)c3cc(C(=O)NCCCN(C)Cc4ccccc4)sc3c2c1 | 110 | 51 | 110 | -26
C=CCN1C(=O)CCNc2ccccc21 | 102 | 93 | . | 7
Cc1ccc(S(=O)(=O)N2CCN(c3cc(=O)n4nc(-c5ccccc5)sc4n3)CC2)cc1 | . | . | 104 | 34
CN(Cc1ccccc1)C(=O)CCn1ccc2cc(S(=O)(=O)N3CCCCC3)ccc21 | 105 | 99 | 107 | -3
O=C(Nc1ccc(C2=NCCO2)cc1)c1ccc(C(F)(F)F)cc1 | 90 | 85 | 98 | -23
Nc1ccc(CN2C(=O)c3ccccc3C2=O)cc1 | 100 | 99 | 98 | -13
FC(F)(F)c1cccc(-c2ccc(CNC3CC3)o2)c1 | . | . | 102 | -11
COc1ccc(Cl)cc1NC(=O)N1CCCN(c2ccc(=O)n(-c3ccc(F)cc3)n2)CC1 | . | . | 103 | -43
Cn1c(=O)c2c(nc(N3CCN(c4ccccc4)CC3)n2CCSc2nnnn2-c2ccccc2)n(C)c1=O | 95 | 84 | 104 | -28
CCOc1ccc(-c2oc3ccc(C)cc3c(=O)c2O)cc1 | 97 | 85 | 99 | -28
CCOC(=O)C1=C(CSc2nc(-c3ccccc3)ccc2C#N)OC(N)=C(C#N)C1c1cccnc1 (configuration not stated) | 82 | 64 | 110 | -41
CCc1cccc(C)c1NC(=O)C1CCN(S(=O)(=O)c2cc(Br)cc3c2N(C(C)=O)CC3)CC1 | 102 | 87 | 104 | -3
CC(=O)N/N=C/c1cc2ccccc2nc1Cl | 101 | 94 | . | -66
O=C(OCc1ccc(Cl)cc1)c1cc(=O)c2ccccc2o1 | 87 | 102 | . | -3
COc1ccc(C2=C(CC(=O)O)C(=O)CC2)cc1 | 93 | 93 | . | -33
CCN(C(=O)Cn1c(=O)nc(-c2ccccc2)c2cc(Cl)ccc21)c1cccc(C)c1 | 62 | 53 | 104 | .
COc1ccccc1NC(=O)Cn1c(=O)n(CC(=O)NCc2ccccc2Cl)c(=O)c2sccc21 | 96 | 100 | 102 | 2
CCC(Oc1ccccc1-c1nnc(-c2ccccc2)o1)C(=O)N1CCCC1 (configuration not stated) | 105 | 77 | 99 | -4

3 compounds already listed, sorted by the number in Sa growth inh second temp, smallest number first.
canonical_smiles | Sa growth inh second temp | GIV-Gai inh
N=c1oc2ccccc2oc1=N | 58 | 101
C=CCN1C(=O)CCNc2ccccc21 | 93 | .
CC(=O)N/N=C/c1cc2ccccc2nc1Cl | 94 | .

Compound profiles, as listed above.
`COc1ccc(C2=C(CC(=O)O)C(=O)CC2)cc1` is listed with Sa growth inh = 93; Sa growth inh second temp = 93; GIV-Gai inh = .; HCMV UL50-53 inh = -33
`COc1ccc(Cl)cc1NC(=O)N1CCCN(c2ccc(=O)n(-c3ccc(F)cc3)n2)CC1` is listed with Sa growth inh = .; Sa growth inh second temp = .; GIV-Gai inh = 103; HCMV UL50-53 inh = -43

Laid out differently: entries from further up
structure,Sa growth inh,Sa growth inh second temp,GIV-Gai inh,HCMV UL50-53 inh
CCc1cccc(C)c1NC(=O)C1CCN(S(=O)(=O)c2cc(Br)cc3c2N(C(C)=O)CC3)CC1,102,87,104,-3
CC(=O)N/N=C/c1cc2ccccc2nc1Cl,101,94,.,-66
O=C(OCc1ccc(Cl)cc1)c1cc(=O)c2ccccc2o1,87,102,.,-3
COc1ccc(C2=C(CC(=O)O)C(=O)CC2)cc1,93,93,.,-33
CCN(C(=O)Cn1c(=O)nc(-c2ccccc2)c2cc(Cl)ccc21)c1cccc(C)c1,62,53,104,.

(further entries)
SMILES | Sa growth inh | Sa growth inh second temp | GIV-Gai inh | HCMV UL50-53 inh
CC1CN(C(=O)c2ccc(C(=O)c3ccccc3)cc2)CC(C)O1 (configuration not stated) | 93 | 84 | . | -11
CCOC(=O)c1sc2nc(CC(=O)OC)nc(N3CCN(c4ccc(OC)cc4)CC3)c2c1C | . | . | 105 | -23
COc1ccc(NC(=O)C(Cc2c[nH]c3ccccc23)NC(=O)OC(C)(C)C)cc1 (configuration not stated) | 105 | 98 | 106 | -6
O=C(O)CCn1c(=S)n(CCC(=O)O)c2ccccc21 | 100 | 89 | 114 | 5
Cc1nc(C(=O)NC2(O)C(=O)c3ccccc3C2=O)cs1 | 102 | 80 | 95 | 60*
CCc1ccc(CNC(=O)c2cnc3sc4cc(OC)ccc4n3c2=O)cc1 | 93 | 93 | 97 | -19
Cc1ccc(CNS(=O)(=O)c2c(C)noc2C)cc1 | 95 | 83 | 103 | -3
CO[C@@]1(NC(=O)CSCC#N)C(=O)N2C(C(=O)O)=C(CSc3nnnn3C)CS[C@@H]21 | . | . | 99 | -19&-25
Cn1nc(C(F)(F)F)c(-c2ccccc2)c1NC(=O)C1C2C=CC(C2)C1C(=O)O (configuration not stated) | 105 | 92 | 100 | -1
COc1ccccc1CNC(=O)CN1C(=O)COc2ccc(S(=O)(=O)NC3CCCC3)cc21 | 106 | 95 | 103 | .
CN(C)c1nc(SCC#N)nc(N(C)C)n1 | 107 | 98 | 100 | 1
CCOC(=O)c1sc2nc(C)nc(NCc3ccc4c(c3)OCO4)c2c1C | . | . | 97 | -15

2 compounds picked at random from those above, as already listed:
SMILES | Sa growth inh | Sa growth inh second temp | GIV-Gai inh | HCMV UL50-53 inh
CCOC(=O)c1sc2nc(C)nc(NCc3ccc4c(c3)OCO4)c2c1C | . | . | 97 | -15
CO[C@@]1(NC(=O)CSCC#N)C(=O)N2C(C(=O)O)=C(CSc3nnnn3C)CS[C@@H]21 | . | . | 99 | -19&-25

(continued)
SMILES | Sa growth inh | Sa growth inh second temp | GIV-Gai inh | HCMV UL50-53 inh
O=C(c1ccc(-c2cccs2)s1)c1ccc(F)cc1F | 113 | 99 | 115 | -7
COc1ccc(C=Nc2ccc3[nH]ncc3c2)c(O)c1 | 122 | 76 | 102 | -20
Cc1c(C(=O)NC2CCC(C)CC2)sc2nc3n(c(=O)c12)CCC3 (configuration not stated) | . | . | 107 | -1
COCCN1C(=O)c2ccccc2C(C(=O)NCc2cc(OC)ccc2OC)C1c1c[nH]c2ccccc12 (configuration not stated) | 113 | 94 | 111 | 2
Cc1ccc(S(=O)(=O)NC(=O)c2nnc(-c3ccc(F)cc3)o2)cc1 | 112 | 96 | . | -16
CCCN1CCC(Nc2ccc3c(c2)CCC3)CC1 | 93 | 111 | 102 | 0
COC(=O)Nc1nc2ccc(OC)cc2[nH]1 | 91 | 86 | 99 | -31
COc1ccc(NC(=O)CCn2c(=O)c3cccn3c3cccnc32)c(OC)c1 | 84 | 99 | 109 | .
Cc1nn(C)c(C)c1CCNC(=O)Nc1ccc2c(c1)OCCO2 | . | . | 106 | -4
NNC(=O)Cn1nnc(N2CCCC2)n1 | 115 | 87 | 103 | -17
COc1ccc(-c2c(C)nn3c4c(cnc23)C(=O)CCC4)cc1 | . | . | 100 | -48
C/C(=N\n1cnnc1)c1ccc(-n2cnnn2)cc1 | 87 | 94 | . | 2
CCNC(=S)Nc1ccc(F)cc1 | 115 | 78 | . | -6
CC(OC(=O)c1ccncc1)C(=O)Nc1cc(C(F)(F)F)ccc1Cl (configuration not stated) | 100 | 78 | . | -20
CC1(C)Cc2nc3c(cc2CO1)c(=O)n(-c1ccccc1)c(=O)n3Cc1ccc(F)cc1 | . | . | 105 | 6
CCN(CC)c1ccc2cc(C(=O)Nc3ccc(C)cc3)c(=N)oc2c1 | 92 | 87 | 136 | -18
Nc1nc(S(=O)(=O)c2ccccc2)c(Cl)s1 | 107 | 99 | . | -4
CC(C)Oc1ccc(CNC(=O)c2ccc3c(c2)nc2n3CCCCC2)cc1 | 98 | 96 | 109 | .
Cc1c(C(=O)N(Cc2ccc(N(C)C)cc2)CC2CCCO2)oc2ccc(Cl)cc12 (configuration not stated) | 107 | 84 | 101&102 | -22&-10
CC1CCCC(C)N1C(=O)c1cc2c(s1)-c1ccccc1OC2 (configuration not stated) | 109 | 98 | 101 | .
Cc1ccc2nc(N3CCN(C(=O)C4CC=CCC4C(=O)O)CC3)nc(-c3ccccc3)c2c1 (configuration not stated) | . | . | 107 | -25
O=C(CC1CCN(C(=O)C2CCCCC2)CC1)NCCCN1CCC(N2CCCCC2)CC1 | . | . | 100 | -46
Cc1nnc2ccc(C(=O)Nc3ccccc3F)cn12 | . | . | 109 | -67
Cc1cc2c(cc3c(SCC(=O)NCc4ccco4)nncn32)o1 | 94 | 55 | 107 | .
CCCn1c(Nc2ccccc2)nc2ccccc21 | 120 | 94 | 103 | -15
Nc1nc(N)nc(SCC(=O)N2CCCC2)n1 | 111 | 99 | . | -10
CN(C)CC(C)(C)NS(=O)(=O)c1ccccc1 | 118 | 77 | . | -34
N#Cc1c(Nc2ccc(Cl)cc2)n[nH]c1N | 101 | 87 | . | 4
Cc1cc(C(=O)O)c(Cl)nc1C | 94 | 89 | 102 | -9
O=C(CCCSc1cccc[n+]1[O-])c1ccc(F)cc1 | 84 | 89 | . | -14
COc1ccc(NC(=S)NCCCO)c(OC)c1 | 104 | 92 | 98 | -2
Cc1cc(F)ccc1S(=O)(=O)Nc1ccccc1C(=O)N1CCCCC1 | 114 | 83 | . | -9
Cc1nc(C(F)(F)F)ccc1C(=O)Oc1ccc(F)cc1F | 102 | 84 | 100 | .
CCc1ccccc1NS(=O)(=O)c1ccc2[nH]cc(C(=O)NC(C)CC)c(=O)c2c1 (configuration not stated) | 103 | 89 | 107 | 4
CC(=O)N1CCCc2cc(S(=O)(=O)N3CCC(C(=O)Nc4c(C)cccc4C)CC3)ccc21 | 98 | 87 | 101 | .
COCCNS(=O)(=O)c1c[nH]c(C(=O)OC)c1 | 100 | 89 | 99 | -3
COc1ccc(-c2cc(C(F)(F)F)n3nc(C(=O)Nc4sc5c(c4C(=O)OC(C)C)CCCC5)cc3n2)cc1OC | 91 | 96 | 108 | 20
COCc1cc(C)nc(SCC(=O)Nc2ccccc2OC)c1C#N | . | . | 110 | 7
CCOC(=O)Cn1c(=O)n(-c2ccccc2OC)c2nc(-c3ccccc3F)nc(C(N)=O)c21 | 88 | 87 | 101 | .
O=C(Nc1ccc(NC(=O)C2CC2)nc1)c1cccc(F)c1 | 101 | 86 | 96 | -11
CC1=C(C(=O)OCCC(C)C)C(c2ccc(OCc3ccccc3)cc2)NC(=O)N1C (configuration not stated) | . | . | 99 | -19
COC(=O)C1=C(C)N(C)C(=O)/C1=C\c1cc(C)n(-c2ccc(C)cc2)c1C | 101 | 91 | 101 | .
CCOC(=O)c1cnc2c(ccc3ccccc32)c1NCCOC(=O)C(C)(C)C | 115 | 87 | 96 | .
COCc1cc(=O)[nH]c2c1c(-c1ccccc1)nn2C | 105 | 93 | 106 | 3
Nc1ccc2nc(SCC(=O)c3ccc(Br)cc3)sc2c1 | . | . | 98 | -14
COc1ccc(OC2C(=O)N(c3cccc(C(F)(F)F)c3)C2c2ccc(OC)c(OC)c2)cc1 (configuration not stated) | 93 | 92 | . | 3
COC(=O)c1ccc2c(c1)NC(=O)C(C)N2 (configuration not stated) | 95 | 65 | 110 | -28
Cc1ccc(S(=O)(=O)CC(C)N2CCOCC2)c(S(=O)(=O)CC(C)N2CCOCC2)c1 (configuration not stated) | 84 | 87 | 94 | .
O=C(c1ccccc1)N1N=C(c2ccccc2)CC1c1ccccc1[N+](=O)[O-] (configuration not stated) | . | . | 99 | -4
COCCn1c(SCC(=O)NC23CC4CC(CC(C4)C2)C3)nnc1-c1ccncc1 | 89 | 94 | . | 21
COc1cccc(NC(=O)Cn2c(=O)n(CCCC(=O)NCc3ccc4c(c3)OCO4)c(=O)c3ccccc32)c1 | 96 | 88 | 107 | 11
COC(=O)CSc1cc(C)c(Cl)cc1C | 96 | 92 | 98 | .
O=C(OCCCn1c(=O)[nH]c2ccccc21)c1ccccc1SCC(=O)N1CCCC1 | 91 | 83 | . | 9
